Vif TR-FRET – inhibitors of Vif binding to APOBEC3G peptide, primary screen, biochemical, TR-FRET, GST-Vif 1-94, biotin-A3G peptide, dose response retest (AID 1117319) | Virion infectivity factor (Human immunodeficiency virus type 1 group M subtype B (isolate … | TR-FRET GST-Vif / biotin-A3G peptide binding; higher % means a stronger effect; test concentration not given here; strong numbers were not always called active | inhibition, %, or IC50 in µM where a hit was titrated | actives 0.57% (n = 260,000);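 active = above the screen mean plus three standard deviations and confirmed in dose response; inconclusive = results disagree or hit not tested in dose response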;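 note: Vif residues 1-94 fused to GST binding biotinylated APOBEC3G peptide 110-148; 0% = full assay without inhibitor and 100% = GST in place of GST-Vif; retest series ran down from 100 µM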
T cruzi inh – inhibitors of intracellular T. cruzi growth, primary screen, luminescence, NIH3T3 host cells | T. cruzi beta-gal in NIH3T3, 90 h | inhibition, % (no concentration beside the values) | actives 1.4% (n = 300,000);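 active = mean inhibition across valid replicates above about 55%, limit read from the data; inconclusive = mean below that limit but half or more replicates reach it; inactive = mean below it, under half of replicates reach it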;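 note: signal also drops with host cell toxicity which is not excluded here; 0% = plate median of DMSO wells and 100% = zero luminescence signal; higher percent means less beta-gal luminescence so fewer parasites; stock transfer was 50 nL into about 50 µL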
RanGTP-Imp inh – inhibitors of RanGTP-importin-beta interaction, primary screen, biochemical, FRET, CFP-Ran, YFP-importin-beta, homogeneous | Ran GTPase (GTP-bound) - importin-beta complex | cell-free CFP-Ran/YFP-importin-beta FRET ratio | inhibition, % (test concentration not listed) | actives 1.1% (n = 300,000);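 active = most replicates above 15%; inconclusive = exactly half above 15%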;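 note: 0% = DMSO wells and 100% = Ran loaded with GDP instead of GTP; wells of about 40 µL received 100 nL stock; the first replicate is given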
Bfl-1 A1 inh – caspase 3/7 activation in MEF A1-2A-BIM cells, primary screen, A1 inhibitor project, cell-based, luminescence, HTS; Caspase-Glo 3/7 luminescence, 3 h; percent of clofoctol response, vehicle zero; caspase activation, % (no concentration beside the values); actives 0.066% (n = 330,000);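 active = over half of replicate activation scores above 10%, or exactly half above 10 with the replicate mean above 10; inconclusive = replicate mean below 10 yet half the replicates above 10; inactive = over half of replicates below 10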;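 note: wells of about 30 µL received 50 nL stock; many hits fall short of the cut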
LANA-H2B inh – blockers of LANA interaction with H2A/H2B – biochemical, FP readout, HTS, primary screen. actives 0.6% (n = 320,000). Protein LANA1 (Human herpesvirus 8 type P (isolate GK18)), Q9QR71. inhibition, % (concentration not given with the values). cell-free LANA-H2A/H2B peptide, fluorescence polarization; in the data active = inhibition mostly above about 10%, no sharp cut-off; inactive = mostly below about 6.7%;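 note: stock transfer was 7.5 nL into about 10 µL; 0% = median of vehicle wells and 100% = median of positive control wells; one replicate is shown; the record names a cut of 25% in any replicate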
AF4-AF9 inh – inhibitors of AF4 peptide binding to AF9, primary screen, biochemical, AlphaScreen, biotin-AF4 peptide, FLAG-AF9, single point; inhibition, % at 10 µM; actives 0.47% (n = 350,000); AID 651704, 2012;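 active = every replicate reaching a set inhibition limit, whatever the replicate mean, cut at about 25% in these data; inconclusive = mean inhibition reaches that limit but some replicates miss it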;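 note: 0% = plate neutral control median and 100% = total signal loss; the record names both 10 and 1 µM as test concentration; the first replicate is given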
Target sequence (P42568 whole entry, looked up): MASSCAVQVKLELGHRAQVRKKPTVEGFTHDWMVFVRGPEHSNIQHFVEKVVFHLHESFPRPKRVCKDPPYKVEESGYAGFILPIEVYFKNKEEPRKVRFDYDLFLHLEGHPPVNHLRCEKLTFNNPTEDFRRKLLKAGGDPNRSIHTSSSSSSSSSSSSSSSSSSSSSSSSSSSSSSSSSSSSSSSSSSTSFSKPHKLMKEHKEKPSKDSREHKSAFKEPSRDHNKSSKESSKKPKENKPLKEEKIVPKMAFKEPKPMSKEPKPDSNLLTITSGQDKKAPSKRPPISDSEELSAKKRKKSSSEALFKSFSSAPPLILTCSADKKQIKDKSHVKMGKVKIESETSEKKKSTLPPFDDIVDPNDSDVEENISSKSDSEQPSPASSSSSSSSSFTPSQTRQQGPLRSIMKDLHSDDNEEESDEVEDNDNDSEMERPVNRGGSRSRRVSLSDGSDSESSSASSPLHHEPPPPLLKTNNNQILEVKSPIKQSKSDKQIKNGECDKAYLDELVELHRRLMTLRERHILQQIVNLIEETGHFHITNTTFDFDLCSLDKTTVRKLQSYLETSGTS
Beta cell apopt – inhibitors of cytokine-induced beta cell apoptosis, primary screen, luminescence | actives 0.8% (n = 300,000) | INS-1E cytokine-induced death, ATP luminescence, 48 h; percent of positive-control rescue, neutral wells zero | protection from apoptosis, % (test concentration not listed);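 active = all replicates at 75% or more, or half of them and the mean; inconclusive = half reach 75% but not the mean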;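 note: 0% = cytokine-treated negative control wells and 100% = positive control rescue; higher means more ATP so stronger rescue from cytokine killing; wells of about 40 µL received 100 nL stock; the first replicate is given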
Calb FLC – C. albicans growth inhibition with fluconazole, primary screen, CaCi-2 strain, Alamar Blue fluorescence; C. albicans CaCi-2 (fluconazole-resistant clinical isolate) + fluconazole, 48 h; actives 0.57% (n = 300,000); AID 1979, 2009; growth inhibition, % (concentration not given with the values);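 active = most replicates above 75%; inconclusive = exactly half above 75%; inactive = most below 75%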;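 note: all wells also contain fluconazole at 8 µg/ml as a sub-toxic cotreatment; 0% = median of DMSO wells and 100% = median of geldanamycin control wells; wells of about 8 µL received 7.5 nL stock; the first replicate is given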
An asterisk follows results filed as active; ? = inconclusive; / = not tested or not shown; & = joins results of further samples. Hits appear at their usual frequency; 4.3% or so of the library scored in one or more.

SMILES	Vif TR-FRET	T cruzi inh	RanGTP-Imp inh	Bfl-1 A1 inh	LANA-H2B inh	AF4-AF9 inh	Beta cell apopt	Calb FLC
CC(OC(=O)CCOc1ccccc1)C(=O)Nc1ccc(Cl)cn1 (stereo not drawn)	1.6%	-8.2	3.8	-0.6	0.6	-4.7	-8.0	-14.4
Cc1ccc(Cn2c(SCC(=O)N/N=C/c3ccccc3OCC(=O)O)nc3ccccc32)cc1	7.9%	-3.9	?	0.4	1.2	10.7	0.7	11.9
COc1cccc(CN2CCNC(=O)C2CC(=O)N(C)C2CCCCC2)c1OC (stereo not drawn)	/	-21.1	1.2	-0.2	-1.2	-1.1	-7.5	-19.4
CCCCOCCCNC(=O)c1ccc2c(c1)OCO2	6.6%	-4.4	2.0	-0.2	2.4	/	-5.6	-20.2
Clc1cccc(OCc2nnc(-c3ccccc3Br)o2)c1	7.2%	16.4	-1.1	0.0	-2.9	-1.7	3.4	-10.4
CCOCCc1nnc(NC(=O)C2CCN(C(=O)c3ccco3)CC2)s1	/	-4.1	0.0	-0.6	1.9	-1.3	-3.7	1.4
COc1cccc(-c2cc(C(=O)NC3CCCC3)c3ccccc3n2)c1	/	14.2	-5.5	0.1	-3.7	-2.3	-7.5	1.2
COc1cccc(C(=O)Cn2c(N3CCOCC3)nc3c2c(=O)n(C)c(=O)n3C)c1	17.4%	-6.0	1.7	-0.2	-4.4	/	-3.8	-1.2
NCCCCC(=O)O	/	/	/	-0.3	-3.7	6.4	1.7	/
CCn1c(-c2ccco2)nc2ccccc21	0.8%	-13.0	-5.2	-1.2	3.4	/	-4.7	3.9
Cc1cccc(N2CCN(C(=O)CSc3ccsc3[N+](=O)[O-])CC2C)c1 (stereo not drawn)	8.6%	29.6	-4.4	1.5	-0.6	/	-3.1	-5.1
CN1C(=O)C(C)(C)c2cc(S(=O)(=O)N3CCC(C(=O)NCc4ccccc4Cl)CC3)ccc21	/	-4.7	2.1	0.6	-4.4	1.3	2.8	-2.4
COc1ccc(N(CC(=O)NCC2CCCO2)C(=O)CCC(=O)Nc2nccs2)c(OC)c1 (stereo not drawn)	/	8.6	-0.3	0.5	-0.4	-0.4	-3.2	8.6
O=C(O)c1cccc2c1C(=O)c1cccc3snc-2c13	18.2%	-13.8	?	-0.3	5.4	-80.2	-5.7	19.5
O=C1CCNc2cc3ccccc3cc21	?	8.9	38.5*	0.0	2.4	/	-11.4	29.8
Cc1ccc(SCCSc2nc(C)cc(=O)[nH]2)cc1	/	-10.0	-4.3	-2.5	3.3	-1.0	/	6.2
CCNC(=O)C1Cc2ccccc2CN1S(=O)(=O)c1ccc(F)cc1 (stereo not drawn)	/	-7.2	-0.6	0.2	1.3	4.5	-4.0	4.7
CC(C)C(NC(=O)COc1ccccc1)C(=O)O (stereo not drawn)	-1.2%	5.3	-5.7	0.6	3.0	/	0.4	3.8
CCNC(=O)N(C(=O)NCC)n1c(C)nnc1C	9.9%	-19.7	0.8	1.7	-9.9	/	1.5	-13.9
CCC(C)(C)NC(=O)C(c1ccc(OC)cc1)N(C(=O)CCC(=O)Nc1cc(C)on1)c1cccc(F)c1 (stereo not drawn)	/	-5.8	-0.6	0.5	0.8	2.3	-4.0	6.3
COC(=O)CCC(=O)N1CCOCCOCCN(C(=O)CCC(=O)OC)CCOCCOCC1	/	-12.9	6.7	0.5	1.2	/	-6.1	-0.9
COC(=O)Cn1nc(-c2ccc(C)c(S(=O)(=O)N(C)C)c2)c2ccccc2c1=O	17.0%	17.2	-0.3	0.0	1.1	/	4.7	20.9
COc1ccc(S(=O)(=O)N2CCC3(CC2)CC(=O)c2ccccc2O3)cc1C	/	-18.0	-4.5	1.1	-1.4	-0.6	-0.5	-9.4
CC(C(=O)OCC(=O)N(C)C1(C#N)CCCCC1)N1C(=O)c2ccccc2C1=O (stereo not drawn)	-0.2%	/	/	-0.5	2.4	-2.4	-6.3	/
CN(C)Cc1c(C(=O)N/N=C/C=C/c2ccccc2)nnn1-c1nonc1N	/	10.7	-2.0	-0.1	-1.7	-4.1	5.6	-2.0
COc1ccc2c(c1)OC/C(=C/c1cccs1)C2=O	18.0%	4.2	0.9	1.4	/	8.0	-3.2	-1.4
c1ccc(N2CCN(c3ccccc3)C2c2cccnc2)cc1	12.5%	36.0	-3.7	0.1	-1.2	/	-0.2	-12.1
N#Cc1cc2cc3c(cc2nc1N1CCCCC1)OCCO3	?	9.1	59.2*	-2.7	0.6	/	1.5	0.5
Cc1cc(C)n(-c2ccc(C)c(Cl)c2)n1	7.8%	-4.2	1.8	0.0	1.7	-5.5	-14.9	-6.7
CSc1nc(-c2ccc(Cl)cc2)nn1C(=O)c1ccco1	0.4%	2.5	4.2	0.4	-5.1	/	5.5	-2.3
O=C(CSc1ccc2c(c1)OCCO2)Nc1ncc(Cl)cc1Cl	5.8%	-9.7	-3.5	-0.2	0.7	/	-8.2	-1.7
COc1cccc(CNC(=O)CCCn2ncn3c(cc4occc43)c2=O)c1	1.4%	-0.6	4.0	0.2	-5.5	-1.0	-4.0	13.5
Cc1ccc(C(=O)Nc2ccc3c(c2)nc2n3CCSC2)cc1	-0.2%	-4.1	5.3	-2.0	-3.8	/	1.1	4.4
NNC(=O)CN1C(c2ccccc2Br)=Nc2ccc(Br)cc2C1c1ccccc1 (stereo not drawn)	?	-4.5	4.0	0.1	-0.4	/	3.3	?
COC(=O)c1ccccc1Oc1ccc(NC(=O)C(C)(C)CCl)cc1	-8.3%	-2.6	0.2	-0.9	-2.0	-1.4	-0.9	-12.7
O=C(COC(=O)Cc1n[nH]c(=O)c2ccccc12)Nc1cccc(C(F)(F)F)c1	1.8%	-5.6	?	1.2	3.2	1.1	-4.4	-17.2
Oc1ccc(/C=N/Nc2ncc(Cl)cc2Cl)cc1	-5.3%	0.5	-1.7	-6.2	6.6	1.5	-16.2	-29.5
Clc1ccc2c(NCc3ccccn3)ncnc2c1	?	-29.0	2.4	0.6	-0.4	/	/	-10.9
CC(C)C(NC(=O)OCc1ccccc1)C(=O)OCC(=O)NCc1ccco1 (stereo not drawn)	18.7%	1.2	-2.7	-0.5	-5.0	/	-10.3	-11.9
COc1ccc(-c2oc3ccc(-c4ccc(OC)nc4)cc3c2-c2ccc(OC)cc2)cc1	/	28.8	1.7	1.5	4.3	-2.3	9.9	5.4
c1ccc(-c2nc(NCc3cccnc3)c3oc4ccccc4c3n2)cc1	4.7%	55.9*	9.3	0.2	4.2	/	0.7	7.5
CCOC(=O)C1CCCN(C(=O)c2ccc3nc(-c4ccccc4)c(-c4ccccc4)nc3c2)C1 (stereo not drawn)	/	8.9	1.1	2.2	2.0	4.2	-3.2	38.2
Nc1ccc(CSc2ccc(Cl)cc2)cc1	/	5.0	-2.3	0.4	-4.4	-2.8	-7.5	?
CCn1c(SCC(=O)N2c3ccccc3CC2C)nnc1-c1ccco1 (stereo not drawn)	/	-9.5	0.4	0.3	1.7	/	-0.6	-6.7
O=C(c1ccc(F)cc1)N1CCN(C(=O)c2ccc([N+](=O)[O-])cc2)CC1	8.0%	-1.3	-1.6	0.0	-15.6	-0.8	-2.0	-19.5
N=C1C(c2nc3ccccc3[nH]2)=C(O)CN1c1ccc(CC(=O)O)cc1	27.1%	-8.4	0.4	0.5	-7.5	/	2.1	-17.2
COc1cc(-c2nnc(SCC3(c4ccccc4)OCCO3)o2)cc(OC)c1OC	3.0%	6.3	-0.6	0.8	-4.2	/	2.3	?
CN(C(=O)c1ccc(Cl)c([N+](=O)[O-])c1)C1(C)CCS(=O)(=O)C1 (stereo not drawn)	-5.6%	-7.7	-1.0	0.3	2.7	-0.3	-4.9	7.4
NNC(=O)CSc1nnnn1-c1ccccc1	/	0.9	0.6	0.3	-0.8	-1.9	-4.4	-2.7
O=S1(=O)CCC(n2ncc3c2/C(=C/c2ccccc2)CC3)C1 (stereo not drawn)	5.2%	-6.5	2.7	-0.3	-4.4	-0.2	1.7	19.6

(cont.)
SMILES	Vif TR-FRET	T cruzi inh	RanGTP-Imp inh	Bfl-1 A1 inh	LANA-H2B inh	AF4-AF9 inh	Beta cell apopt	Calb FLC
FC(F)(F)c1cccc(-c2nc(-c3ccncc3)no2)c1	0.1%	-1.4	-0.4	0.8	1.9	-2.9	0.1	-0.2
CC[n+]1c(/C=C/Nc2ccccc2)sc2ccccc21	2.2%	34.0	1.0	-0.5	4.1	/	60.0	2.7
COc1ccc(OC)c(C(O)c2nc3ccccc3n2C)c1 (stereo not drawn)	-5.1%	0.7	-1.3	0.0	-2.5	-4.9	/	4.1
CC(CCc1ccccc1)NC(=O)CCCn1ncn2c(cc3occc32)c1=O (stereo not drawn)	5.6%	8.6	1.9	2.1	0.5	-0.1	2.6	-12.9
CN(C)/C=C1\N=C(c2ccc(Cl)cc2Cl)OC1=O	0.5%	7.5	0.1	1.2	-0.1	/	-6.7	-30.2
O=C(CCC(=O)OCC(=O)c1ccc(Br)cc1)Nc1ccc(Br)c2cccnc12	-1.2%	-29.4	7.9	-0.7	-2.4	/	-6.0	0.3
COC(=O)C1=C(N)Oc2cc(C)n(Cc3ccco3)c(=O)c2C1c1cccc(Cl)c1 (stereo not drawn)	2.8%	32.9	-1.8	-0.2	-0.7	/	2.5	0.5
O=C1CC(NS(=O)(=O)c2cccnc2)CN1c1ccc(F)cc1 (stereo not drawn)	-4.9%	-4.6	-7.8	0.0	1.3	2.7	/	8.1
CC(C)C[C@H](NC(=O)Nc1ccc(S(N)(=O)=O)cc1)C(=O)O	3.8%	-11.0	-0.9	-0.1	-0.9	/	-2.7	-1.5
COc1ccc(S(=O)(=O)N2CCCC(C(=O)NCC3CCCO3)C2)cc1C (stereo not drawn)	14.5%	0.9	-1.7	0.6	2.1	-1.4	/	4.2
COc1cc(NC(=O)c2ccc(Cl)cc2)c(Cl)cc1NC(=O)c1cccnc1	/	-11.9	-0.5	-1.3	-2.3	-0.1	1.7	-1.7
Cc1ccc(CNC(=O)CCCn2c(=O)c3ccccc3n(CC(=O)NC3CCCC3)c2=O)cc1	26.3%&1.3%	2.1	1.5	-0.5	-2.8	/	-5.6	5.5
CC(C)N(Cc1nc(-c2ccc(Cl)cc2)no1)C(=O)CCCN1C(=O)c2ccccc2C1=O	7.8%	6.6	?	/	/	-7.1	/	0.7
CSc1cccc(N2CC(C(=O)N(CC(C)C)c3c(N)n(Cc4ccccc4)c(=O)[nH]c3=O)CC2=O)c1 (stereo not drawn)	6.8%	1.6	2.3	-0.4	-3.1	0.5	/	-13.8
O=C(COc1ccccc1Cl)NCCCNC(=O)c1ccco1	/	9.8	2.2	-0.5	7.8	-6.0	3.1	-13.8
CCOC(=O)CC(=O)CSc1nc2c(C)c(C)ccc2cc1C	-8.0%	1.2	?	0.2	-0.8	/	-3.1	4.7
Cc1csc2c(SCC(=O)NNC(=O)C(Cl)Cl)ncnc12	-2.0%	-8.6	-0.4	1.6	4.2	0.2	-6.4	-2.4
COC(=O)c1c(C(=O)OC)c(-c2ccc(F)cc2)n2c1CS(=O)(=O)C2	-10.2%	-5.6	4.0	1.6	-1.1	-2.6	0.4	0.2
